High-throughput results (PubChem)
HPGD inh: qHTS Assay for Inhibitors of HPGD (15-Hydroxyprostaglandin Dehydrogenase); 15-hydroxyprostaglandin dehydrogenase [NAD(+)] (Homo sapiens), P15428; purified HPGD, NADH fluorescence kinetic, PGE2 substrate; Potency, µM, inactives show at the highest dose activity change, negative = inhibition, hits mostly inhibitors; 4.3% of 150,000 active; AID 894, 2007; active = well fitted inhibition curve with a large enough effect (not every such curve was filed as active); inconclusive = small, poorly fitted or top-dose-only effect, or another doubt; inactive = no such curve, though single readings can be large or run the other way;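 also: top concentration of the series not given in the record; plate controls included wells without enzyme; inactives centre near -10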
Target sequence (P15428 whole entry, looked up): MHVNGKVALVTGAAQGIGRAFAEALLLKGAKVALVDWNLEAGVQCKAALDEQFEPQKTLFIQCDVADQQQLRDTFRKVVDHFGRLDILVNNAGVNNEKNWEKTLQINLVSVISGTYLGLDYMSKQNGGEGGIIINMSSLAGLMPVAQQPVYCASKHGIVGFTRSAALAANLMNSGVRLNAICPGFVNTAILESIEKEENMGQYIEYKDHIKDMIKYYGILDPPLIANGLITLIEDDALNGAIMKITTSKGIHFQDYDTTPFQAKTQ
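20 nM HPGD preincubated 15 min at room temperature with compound in 50 mM Tris-HCl pH 8, 0.01% Tween 20. Started with 1 mM NAD+ and 30 uM prostaglandin E2; NADH fluorescence (360/450 nm) read 5 times over 30-s intervals, last minus first.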
Active calls of the source: *; u = inconclusive. % is scaled to controls: 0 for no effect and ±100 for the full control effect; potency is read from the fitted curve at half-maximal effect.

Compound	HPGD inh
COC(=O)CC(N)c1ccc(OC)c2ccccc12 (configuration not stated)	-28.8%
CC1=C(C(=O)Nc2ccccc2C)C(c2ccccc2)NC(=O)N1 (configuration not stated)	-6.8%
c1ccc2c(c1)OCCOCCOCCOCCOCCOc1ccccc1OCCOCCOCCO2	-3.2%
COc1ccc(S(=O)(=O)NCCC(C)C)cc1OC	-1.5%
Cc1cc(=S)cc(C)n1CCCn1ccnc1	-10.6%
COC(=O)C(/C=N/OCc1ccc([N+](=O)[O-])cc1)NC(=O)c1cccc(Cl)c1 (configuration not stated)	-3.1%
CCOP(=O)(OCC)C(Nc1ccccc1)c1cc(OC)ccc1OC (configuration not stated)	0.8%
CCn1c(O)c(C=NC2CCCC2)sc1=S	u
O=C(N/N=C/c1ccncc1)c1cc2ccccc2o1	-15.2%
CC(C)(C)OC(=O)[C@H]1[C@H](c2ccc([N+](=O)[O-])cc2)C2(C(=O)c3ccccc3C2=O)C2c3ccccc3C=NN21 (some centres not stated)	-24.1%
O=C(Nc1ccc(-c2nc3ncccc3o2)cc1)c1ccc(Br)o1	u
COc1ccc(CN(C(=O)CSc2nnc(-c3ccc(F)cc3)o2)c2ccc(F)cc2)cc1	-18.6%
CC12CCC(=O)N1C(C(=O)O)Cc1c2[nH]c2ccccc12 (configuration not stated)	-2.3%
O=C(NCc1ccco1)c1cc2cc3ccc(Cl)cc3nc2o1	u
Cc1ccc(C2(C)NC(=O)N(CC(=O)Nc3cc(S(=O)(=O)N4CCOCC4)ccc3C)C2=O)cc1 (configuration not stated)	-6.2%
CCN(CC)c1ccc2cc(-c3nnc(-c4ccccc4)o3)c(=O)oc2c1	-15.8%
Cc1cc(C(=O)Nc2nc3c(C)cccc3s2)c(C)o1	-17.9%
CCN(CC)S(=O)(=O)c1cccc(C(=O)OCC(=O)c2ccc3c(c2)NC(=O)CO3)c1	-8.0%
O=C(CCn1c(=O)[nH]c2ccccc2c1=O)N1CCN(c2cccc(C(F)(F)F)c2)CC1	6.1%
CC1(C)OC(=O)N(c2ccccn2)C1(C)O (configuration not stated)	-1.1%
Cc1ccc(S(=O)(=O)N2CCC(C(=O)Nc3nnc(C45CC6CC(CC(C6)C4)C5)s3)CC2)cc1	-9.1%
Cc1cccc(NC(=O)c2sc(NC(=O)c3ccco3)c(C#N)c2C)c1C	-7.9%
Cc1ccc(OCCCn2ccnc2)c([N+](=O)[O-])c1	-5.7%
Cc1[nH]c2ccccc2c1C(=O)CSC(=S)N(C)C	-8.5%

Next section; the last five above are carried over.
Compound	HPGD inh
CC1(C)OC(=O)N(c2ccccn2)C1(C)O (configuration not stated)	-1.1%
Cc1ccc(S(=O)(=O)N2CCC(C(=O)Nc3nnc(C45CC6CC(CC(C6)C4)C5)s3)CC2)cc1	-9.1%
Cc1cccc(NC(=O)c2sc(NC(=O)c3ccco3)c(C#N)c2C)c1C	-7.9%
Cc1ccc(OCCCn2ccnc2)c([N+](=O)[O-])c1	-5.7%
Cc1[nH]c2ccccc2c1C(=O)CSC(=S)N(C)C	-8.5%
O=C1CSC(=Nc2ccc(O)cc2)N1c1ccc(O)cc1	-24.7%
CC(=O)c1nc(N2C(=O)CC(Cc3cccc(C)c3)C2=O)sc1C (configuration not stated)	-22.9%
Cc1nn2c(=O)cc(COC(=O)c3ccc(S(=O)(=O)N4CCCCC4)cc3)nc2s1	-7.4%
COn1c(SCC(N)=O)nc2ccccc2c1=O	-18.0%
Nc1ccc(-c2nc3ccc(-c4nc5ccc(N)cc5[nH]4)cc3[nH]2)cc1	u
O=S(=O)(CCc1ccccc1)N1CCOCC1	3.6%
Cc1ccc(N2CCN(CC(=O)Nc3c(C(=O)C4CC4)oc4ccccc34)CC2)cc1	-7.9%
COc1ccc(CNC(=O)COC(=O)c2cc(-c3cccs3)nc3ccccc23)cc1OC	u
COc1ccc(/C(N)=N/OC(=O)COc2ccccc2Cl)cc1	-14.8%
Cc1sc2nc(C3CC3)nc(SCC(=O)N3CCc4ccccc4C3)c2c1C	u
COc1ccc(C2=NN(C(=S)Nc3ccccc3)C(c3ccccc3)C2)cc1 (configuration not stated)	-22.6%
c1ccc(-c2ccc(N3CC[C@@]4(CCCNC4)C3)cc2)cc1	u
Cc1onc(-c2ccccc2Cl)c1C(=O)Nc1nc2c(s1)CCCC2	-13.9%
CN(Cc1c(F)cccc1Cl)c1ccc(S(=O)(=O)N2CCOCC2)cn1	14.0%
CCS(=O)(=O)CCSc1nc2c(cc1C#N)CCCC2	-22.6%
Cc1ccccc1-c1nc(CS(=O)(=O)CC(=O)N2CCc3ccccc3C2)c(C)o1	-11.1%
O=C(c1ccc2c(=O)n(C3CCCC3)c(=S)[nH]c2c1)N1CCN(C2CCCCC2)CC1	-9.1%
Nc1c(-c2ccccc2)c(CN2CCOCC2)nn1-c1ccc(F)cc1	-1.9%
C[C@H]1CC[C@@H]2[C@@H](C)[C@H]3[C@H](C[C@H]4[C@@H]5CC=C6C[C@@H](O[C@]7(O[C@H]8O[C@@H](C)[C@@H](O)[C@@H](O)[C@@H]8O)C[C@@H](O[C@@H]8O[C@H](CO)[C@@H](O)[C@H](O)[C@@H]8O)[C@@H](O)[C@H](CO)O7)CC[C@]6(C)[C@H]5CC[C@@]34C)N2C1	-2.5%
O=[N+]([O-])c1cccc(-c2nc(-c3ccncc3)no2)c1	-10.4%
Cc1ccc(NC(=O)Cn2nc([N+](=O)[O-])c(Br)c2C)cc1C	-9.7%
COc1ccccc1OCc1ccc(C(=O)N2CCN(C)CC2)o1	-2.4%
CC(=O)Nc1c(C(=O)N2CCCCCC2)cnn1-c1ccccc1	u
COC(=O)[C@@H](NC(=O)NCc1cccs1)C(C)C	-3.3%
COc1ccc(F)cc1S(=O)(=O)N1CCCN(S(=O)(=O)c2cc(F)ccc2OC)CC1	5.7%
Cc1ccc(NC(=S)NC(=O)/C=C/c2ccc(Cl)cc2)cc1	-18.9%
O=C(c1ccc(CNc2c(N3CCCC3)c(=O)c2=O)cc1)N1CCc2ccccc2C1	3.55µM*
CC(C)COP(=O)(OCC(C)C)C(Nc1ccccc1)c1ccc(F)cc1 (configuration not stated)	-14.7%
COc1ccc(Oc2ccccc2/C=C/C(=O)O)cc1	-0.1%
CCCN(CCc1ccccc1)C1CCc2c(O)cccc2C1 (configuration not stated)	-12.2%
O=C(NC1(C(F)(F)F)N=C(c2ccccc2)NC1=O)c1ccccc1 (configuration not stated)	-2.3%
CCCn1c(C)nc2c(NCC3CCCN3CC)nc(C)nc21 (configuration not stated)	-14.4%
Cc1nc(CC(=O)NNS(=O)(=O)c2ccc(F)c(Cl)c2)cs1	-9.9%
COC(=O)c1cc(C(=O)Nc2nnc(C3CC3)s2)cc([N+](=O)[O-])c1	u
CC1Oc2ccccc2N(Cc2ccccc2F)C1=O (configuration not stated)	-6.5%
Cc1nc(SC2CC(=O)N(c3ccc([N+](=O)[O-])cc3)C2=O)nc2c1CCCC2 (configuration not stated)	-19.1%
S=C(NCCSCc1c(Cl)cccc1Cl)Nc1ccccc1	25.1µM*
COC(=O)CC1=Nc2ccccc2NC(=O)C1	-15.9%
O=c1c(Cc2ccc(F)cc2)c(O)ccn1C1CCCCC1	-17.0%
O=C(CCN1C(=O)c2ccccc2C1=O)Nc1ccccc1C(=O)N1CCOCC1	-1.3%
CCCCNc1nc2c(c(=O)n(C)c(=O)n2C)n1Cc1cccc(OC)c1	-19.2%
CCCOc1ccccc1C(=O)N(Cc1cccs1)C1CCS(=O)(=O)C1 (configuration not stated)	-1.5%
COc1cc(/C=N/N2CCN(C3c4ccccc4-c4ccccc43)CC2)ccc1O	-18.4%
COc1ccc(C(=O)n2nc(C)cc2Nc2ccccc2)cc1	-6.1%
Cc1ccccc1NS(=O)(=O)c1cc(C(=O)NCCSC2CCCCC2)ccc1C	-6.9%
O=C(NCC1CCCO1)c1ccc(Cl)c(F)c1F (configuration not stated)	u
O=C(CSC1=NCCN1)NC1CCCCCC1	-9.5%
FC(F)(F)c1cccc(NC(=S)NC(c2ccccc2)c2ccccc2)c1	-3.7%

(list continues)
| Structure | HPGD inh |
| --- | --- |
| CCOC(=O)c1cccnc1SC(CC)C(=O)NCc1ccco1 (configuration not stated) | 1.7% |
| COc1n[nH]c(C(=O)Nc2cc(F)ccc2C)c1[N+](=O)[O-] | -18.1% |
| CC1Cn2c(nnc2-c2ccccc2O)S1 (configuration not stated) | -11.3% |
| CCOc1ccccc1NC=C1C(=O)OC2(CCCCC2)OC1=O | -4.4% |
| COC(=O)c1ccc(NC(=O)C(C)N2C(=O)c3ccccc3C2=O)cc1 (configuration not stated) | -10.3% |
| O=C(Cc1ccccc1)NNC1CC(=O)N(c2ccccc2)C1=O (configuration not stated) | 1.4% |
| Cc1oc2c(c1C(=O)NCCO)CCCC2 | -5.1% |
| CC(=O)Nc1ccc(NC(=O)Cn2cnc3c(cnn3C(C)(C)C)c2=O)cc1 | 1.5% |
| CCOc1ccc2nc(-c3ccccc3)nc(SCC(=O)Nc3ncc(C)s3)c2c1 | -22.8% |
| CCN(CC)C(=O)CN(C#N)c1nc(C)cc(C)n1 | -5.1% |
| N#Cc1ccc(CSc2nnc(NC(=O)C3CCCO3)s2)cc1 (configuration not stated) | -29.5% |
| CCOc1cc(/C=C(/C#N)c2nc3ccccc3[nH]2)ccc1OCc1ccc(C(=O)O)o1 | u |

With a hit mark in HPGD inh (from the list above):
| Structure | HPGD inh |
| --- | --- |
| O=C(c1ccc(CNc2c(N3CCCC3)c(=O)c2=O)cc1)N1CCc2ccccc2C1 | 3.55µM* |
| S=C(NCCSCc1c(Cl)cccc1Cl)Nc1ccccc1 | 25.1µM* |

Additional entries
| Structure | HPGD inh |
| --- | --- |
| Cc1cccc(NC(=O)CN2C(=O)S/C(=C\c3cc(C)n(C)c3C)C2=O)c1 | -6.5% |
| O=C(Oc1ccc(=O)n(-c2ccccc2)n1)c1cccc(Cl)c1 | -21.9% |
| CCSc1nnc(Cc2cc(=O)[nH]c(=O)[nH]2)n1-c1cc(C)ccc1C | -3.2% |
| CCN1C(=O)/C(=C\c2cn(CCC#N)nc2-c2ccc(F)cc2)SC1=S | -10.6% |
| CCCCc1c(O)nc(N2CCN(Cc3ccccc3)CC2)[nH]c1=O | 2.0% |
| Cc1ccc(C(C)(C)C)c(OCCCCN2CCCC2)c1 | -15.7% |
| CC(C)NC(=O)c1cccc(C(F)(F)F)c1 | -13.2% |
| CCOc1ncccc1C(=O)OCC(=O)NCCc1ccc(OC)cc1 | 0.4% |
| COC(=O)c1cc(=O)n2c(-c3ccc(OC)cc3)csc2n1 | -10.4% |
| CS(=O)(=O)N1CCC(C(=O)Nc2ccccc2)CC1 | -3.8% |
| O=C(NCCCN1CCOCC1)c1c(O)c2ccccc2[nH]c1=O | -12.0% |
| N#Cc1cc(Oc2cccnc2)c(Oc2cccnc2)cc1C#N | -4.8% |
| COc1ccc(-c2cccc(C(=O)Nc3cccc(C(=O)O)c3)c2)cc1 | -23.9% |
| Cc1ccc(N(Cc2cc3ccccc3[nH]c2=O)C(=O)c2cccs2)cc1 | -11.0% |
| Cc1cc(C)n(-c2nc(-c3ccccc3)cs2)n1 | -10.0% |
| Fc1ccccc1N1CC(c2ccccc2)C(c2cccs2)=N1 (configuration not stated) | u |
| CCCNC(=O)Nc1ccccc1C(=O)Nc1ccc(OC)cc1 | -1.0% |
| COC(=O)c1sccc1NC(=O)c1ccc(OC)cc1OC | u |
| COC(=O)c1ccccc1NC(=O)Cn1c(=O)n(Cc2ccccc2)c(=O)c2c(C)c(C)sc21 | -20.0% |
| Cc1c(C(=O)N2c3ccccc3Sc3ccccc32)cccc1[N+](=O)[O-] | -14.2% |
| CCN1CCN(CC(=O)Nc2sc3c(c2C#N)CCC(C)C3)CC1 (configuration not stated) | -12.8% |
| Cc1cccn2cc(CCNC(=O)c3ccco3)nc12 | -2.4% |
| Cc1ccc(C(=O)COC(=O)CNC(=O)C(c2ccccc2)c2ccccc2)cc1[N+](=O)[O-] | -19.9% |
| Cc1ccc(S(=O)(=O)NNC(=O)c2sc(=S)n(C)c2C)cc1 | -10.6% |
| Cc1nc2cc(S(=O)(=O)N3CCC(C(=O)O)CC3)ccc2n1C1CCCC1 | 0.5% |
| c1ccc(Oc2ncnc3oc(-c4ccccc4)cc23)cc1 | -5.3% |
| O=C1CCCc2c1nc(-c1ccco1)n2O | u |
| C=CCNC(=O)/C(C#N)=C/c1c(N(Cc2ccccc2)Cc2ccccc2)nc2ccccn2c1=O | -18.1% |
| CC(C)Oc1ccc2nnnn2n1 | -9.9% |
| CCn1cnc2c1c(=O)n(CC(=O)N1CCc3ccccc31)c(=O)n2Cc1ccccc1 | -12.8% |
| COc1ccc(NC(=O)COC(=O)c2ncc(Cl)c(Cl)c2Cl)c(OC)c1 | -3.0% |
| CCOC(=O)N1CCN(c2cc(=O)n(-c3ccc(OC)cc3)c(=O)[nH]2)CC1 | -2.7% |
| CCOc1ccccc1Oc1coc2cc(OC)ccc2c1=O | -12.7% |
| Cc1cccc(OCCC(=O)NCC(=O)Nc2cccc(C)c2C)c1 | 0.9% |
| CCOc1ccc(N2C(=O)CC(SC(=NC)Nc3ccc4c(c3)OCO4)C2=O)cc1 (configuration not stated) | -7.2% |
| Cc1nc2ccsc2c(=O)n1-c1ccc(Cl)cc1 | -11.6% |
| CCCC(=O)Nc1ccc(Cl)c(NC(=O)C(C)(C)C)c1 | -9.0% |
| COc1ccccc1Nc1nc(N)nc(CSc2ncccn2)n1 | -2.4% |
| OCCN1CCN(C(=S)c2ccc(Br)cc2)CC1 | -9.0% |
| C=CCn1c(-c2ccc3[nH]c(C)c(C)c3c2)n[nH]c1=S | u |
| COc1cccc(Nc2nc(-c3ccc4c(c3)OCCO4)cs2)c1 | -21.7% |
| Cc1ccnc(NC(=O)c2cc(-n3cnnc3)ccc2Cl)c1 | -9.5% |
| COC(=O)c1ccc(C(NC(=O)OCc2ccccc2)/C(C)=C/[C@@H](C)C(=O)NCc2nn(-c3ccccc3)nc2C)cc1 (some centres not stated) | -16.9% |

This is a subset. The share of hits here may be higher or lower than overall.
